Hsc70 = small molecules displacing fluorescent ligand from Hsc70 – biochemical, fluorescence polarization, primary screen (AID 568) | 83,000 tested, under 10 active | Hsc70 fluorescence polarization, probe displacement; higher % means a stronger effect; strong numbers were not always called active | displacement, % at 20 µM; hits with a dose series show IC50 in µM;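 active means displacement above 50% without optical interference and an IC50 on retest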;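 further: ATPase domain with a fluorescein-tagged ATP probe; 0% = vehicle and 100% = excess ADP; read after one hour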
WNV protease inh = blocks West Nile virus NS2B-NS3 protease activity; z-score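 (tested at a level between 10 and 100 µM)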; 65,000 compounds, 0.18% hits; P06935; WNV NS2B-NS3 protease, fluorogenic substrate Ex360/Em465; stronger effect = lower value;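 active means z-score at -3 or under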;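 further: score is relative to mean and spread of the compound wells of a plate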
Target sequence (P06935 1371-1501 limits assumed): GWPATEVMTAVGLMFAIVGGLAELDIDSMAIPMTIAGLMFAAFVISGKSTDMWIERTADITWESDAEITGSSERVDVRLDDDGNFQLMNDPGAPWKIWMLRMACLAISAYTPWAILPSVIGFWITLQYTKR
Target sequence (P06935 1502-1679 limits assumed): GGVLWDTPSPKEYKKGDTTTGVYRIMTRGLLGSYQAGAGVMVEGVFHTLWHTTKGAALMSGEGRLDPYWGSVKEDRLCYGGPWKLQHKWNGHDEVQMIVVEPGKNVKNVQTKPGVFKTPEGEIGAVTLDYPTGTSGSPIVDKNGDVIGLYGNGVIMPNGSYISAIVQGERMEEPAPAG
MT1-MMP promoter = inhibitors of MT1-MMP promoter transcription, cell-based, luciferase reporter, luminescence (AID 618) | 87,000 compounds, 0.62% hits | MT1-MMP promoter luciferase reporter cells, luminescence | calls from a first round at 10 µM; hits with a dose series show EC50 in µM;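 active means over half of the reporter light lost at 10 µM or EC50 under 50 µM; inactive means the rest and hits that failed the dose series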;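 further: actives suppress MT1-MMP promoter-driven transcription so potencies describe inhibitors; HT1080 fibrosarcoma cells; overnight exposure; toxic or luciferase-blocking compounds were not removed from the actives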
* hit, by the source's call; i = inactive; . = no result given.

SMILES | Hsc70 | WNV protease inh | MT1-MMP promoter
CCOc1ccc2c(c1)C(c1ccc(C)cc1)=NNC(c1ccc(C)cc1)=N2 | 1.3% | . | i
COc1ccc(S(=O)(=O)n2c(CCN3CCOCC3)nc3ccccc32)cc1 | 2.1% | -0.87 | i
COc1cc2c(cc1OC)/C(=C/C(=O)N1CCOCC1)NC(C)(C)C2 | 0.8% | 0.49 | i
COc1ccc(NC(=O)CN2CCN(c3nc(-c4cccc(OC)c4)cs3)CC2)cc1 | -3.6% | . | i
O=C(NCc1ccco1)c1ccccc1Br | 0.9% | -1 | i
COc1cc(OC)c(NS(=O)(=O)c2coc(C(N)=O)c2)cc1Cl | 5.2% | 0.09 | i
CC(C)CC(NS(=O)(=O)c1ccccc1)C(=O)O (stereo not given) | 0.3% | . | i
COCCNC(=O)C(c1ccc(C)o1)N(CC1CCCO1)C(=O)Cn1nnc2ccccc21 (stereo not given) | 0.2% | 0.1 | i
O=C(O)CS(=O)(=O)c1ccc(Oc2ccc(S(=O)(=O)CC(=O)O)cc2)cc1 | 0.0% | -1.2 | i
CN(C)S(=O)(=O)c1ccc(C(=O)NCc2cccs2)cc1 | -0.8% | -0.73 | i
CCOc1ccccc1C(=O)N(Cc1ccccc1)Cc1cc2cc3c(cc2[nH]c1=O)OCCO3 | 3.5% | . | i
CCOC(=O)N1CCN(S(=O)(=O)c2ccc3c(c2)SC(C)C(=O)N3)CC1 (stereo not given) | 2.8% | -1.1 | i
CN(C(=O)c1c(Cl)nc2sccn12)C1CCCCC1 | 1.8% | -0.45 | i
c1ccc2c(CNc3ccc(CNc4ncn[nH]4)cc3)cccc2c1 | 3.4% | . | i
COC(=O)c1nc(NC(=O)c2ccc(Cl)cc2)n[nH]1 | -0.1% | 1.5 | i
CCCC1(C(=O)O)NC(c2ccc(OC)cc2O)C2C(=O)N(c3ccc(OC)cc3)C(=O)C21 (stereo not given) | -2.2% | 0.23 | i
Cc1csc(SCC(=O)Nc2cccc3nsnc23)n1 | -3.1% | -0.3 | i
CC(NC(=O)Cn1cnnn1)C12CC3CC(CC(C3)C1)C2 (stereo not given) | 1.9% | 1.7 | i
CCN(CC)CCCN1C(=O)C(O)=C(C(=O)c2cc3ccccc3o2)C1c1ccccn1 (stereo not given) | 0.9% | -0.78 | i
Cc1ccccc1-c1nc2cc(N)ccc2o1 | 6.5% | -1.6 | i
O=C(CSc1nnc2c(Cl)cc(Cl)cn12)NC1CCS(=O)(=O)C1 (stereo not given) | -0.4% | . | i
COc1ccc(CCNC(=O)c2cc(-c3cccs3)on2)cc1OC | 7.8% | 0.3 | i
CN1CCN(CCCCOc2ccc(F)cc2)CC1 | -8.6% | 0.5 | i
Cc1cccc(NC(=O)NCCN2C(=O)C3C4C=CC(C4)C3C2=O)c1 (stereo not given) | 6.3% | 1.5 | i
N#CCCN1CCN(C(CNS(=O)(=O)c2ccc(Cl)cc2)c2ccccc2)CC1 (stereo not given) | -0.4% | -0.44 | i

Reprinted from the part before: five entries, followed by the next part.
SMILES | Hsc70 | WNV protease inh | MT1-MMP promoter
O=C(CSc1nnc2c(Cl)cc(Cl)cn12)NC1CCS(=O)(=O)C1 (stereo not given) | -0.4% | . | i
COc1ccc(CCNC(=O)c2cc(-c3cccs3)on2)cc1OC | 7.8% | 0.3 | i
CN1CCN(CCCCOc2ccc(F)cc2)CC1 | -8.6% | 0.5 | i
Cc1cccc(NC(=O)NCCN2C(=O)C3C4C=CC(C4)C3C2=O)c1 (stereo not given) | 6.3% | 1.5 | i
N#CCCN1CCN(C(CNS(=O)(=O)c2ccc(Cl)cc2)c2ccccc2)CC1 (stereo not given) | -0.4% | -0.44 | i
Cc1cccc(OCCOCCSc2ncccn2)c1 | 2.8% | -0.02 | i
CC(C)CCNc1nnnc2c1sc1nc(N3CCOCC3)c3c(c12)CC(C)(C)SC3 | -18% | . | i
CC(C)=CC(=O)Nc1ccc2c(c1)OCO2 | 4.9% | -0.81 | i
O=C(CN1C(=O)c2cccc3cccc1c23)N1CCc2ccccc2C1 | -3.6% | 0.25 | i
O=C(c1ccco1)N1CCN(C(=O)C2Cc3ccccc3CN2S(=O)(=O)c2ccc(F)cc2)CC1 (stereo not given) | 0.5% | 0.25 | i
C1CCc2c(nc3nnnn3c2NC2CCCC2)C1 | -6.7% | . | i
Cc1[nH]c2c(ccc3ccccc32)c1C1C(CCN)C1(C)C (stereo not given) | -2.0% | . | i
O=C(Nc1ccccc1)c1c(F)cccc1F | -1.2% | . | i
CC(C)(C)NC(=O)c1cnn(-c2ccccc2)c1NC(=O)c1ccccc1 | 1.6% | . | i
COCCCN1C(=O)C(O)=C(C(=O)c2ccco2)C1c1ccc(Br)cc1 (stereo not given) | 1.9% | -0.56 | i
Cc1cc(C)nc(-n2nc(C)cc2NC(=O)COC(=O)CCC(=O)c2cccs2)n1 | 10% | -0.85 | i
O=C(COC(=O)c1cccnc1Nc1ccccc1F)NCc1ccc2c(c1)OCO2 | -19% | -0.42 | i
CCn1c(SCc2nc(-c3ccccc3)no2)nnc1-c1ccco1 | -2.8% | . | i
C=CCNC(=O)CN1CCC(O)(c2ccccc2)CC1 | -4.2% | 1.6 | i
O=c1c2c3nc4ccccc4nc3n(/N=C/c3cccs3)c2ncn1-c1ccccc1 | -0.1% | -1 | i
COc1cccc(N/C=C(\C#N)c2ccc(OCCCF)cc2)c1 | 1.6% | . | i
CCCCCCN1CC(O)=C(c2ccccc2)C1=N | 0.8% | . | i
CCC(=O)N1CCc2cc(S(=O)(=O)NC(C(=O)N3CCc4ccccc4C3)C(C)C)ccc21 (stereo not given) | -0.9% | 0.33 | i
COc1ccc(Cn2nnnc2C(c2cccs2)N2CCN(c3ccccc3)CC2)cc1 (stereo not given) | -8.1% | 1.1 | i
COc1cc(S(=O)(=O)N2CCCCC2)ccc1NC(=O)/C=C/c1ccccc1 | 5.2% | . | i
O=S(=O)(c1ccc(F)cc1)N1CCN(c2nc(-c3ccc(F)cc3)cs2)CC1 | 2.3% | . | i
O=C(Cn1c(-c2cscn2)nc2ccccc21)Nc1cc(F)ccc1F | 0.7% | . | i
CCOc1cc(N2CCOCC2)c(OCC)cc1NC(=O)COC(=O)[C@H](Cc1c[nH]c2ccccc12)NC(C)=O | 1.6% | . | i
COC(=O)C(N)Cc1ccc(O)c(O)c1 (stereo not given) | -6.9% | . | i
COc1ccc2c(c1)-c1ccccc1S(=O)(=O)N2C | -3.2% | . | i

Continuation.
SMILES | Hsc70 | WNV protease inh | MT1-MMP promoter
Cn1c(=O)oc2cc(S(=O)(=O)N3CCN(c4ccccn4)CC3)ccc21 | 0.1% | -0.24 | i
CCOC(=O)c1cccc(NC(=O)CSc2nnc(COc3ccccc3C)o2)c1 | 1.0% | 0.47 | i
Cc1cc(C)c(S(=O)(=O)N(C)CC(=O)NC2CCCC2)c(C)c1 | -0.3% | 0.22 | i
Cc1nnc2n(Cc3ccccc3)c(=O)c3c4c(sc3n12)CCCC4 | -4.1% | -0.19 | i
COc1ccc(OC)c(NC(=O)C2COc3ccccc3O2)c1 (stereo not given) | 4.8% | -0.17 | i
Cc1c(NC(=O)C(C)OC(=O)c2cc3c4ccccc4n(C)c3s2)c(=O)n(-c2ccccc2)n1C (stereo not given) | 0.1% | 0.46 | i
Cn1c(SCC(=O)NCCc2ccccc2)nnc1-c1ccco1 | 2.7% | . | i
COc1cc(Cn2c(C(=O)O)cc3sccc32)cc(OC)c1OC | 5.3% | -0.18 | i
COc1ccc(N(CC(=O)N2CCCCC2)S(=O)(=O)c2c(C)nn(C)c2C)cc1 | 1.0% | -0.16 | i
CC1CCC2(CC1)NC(CO)(CO)CO2 (stereo not given) | -4.7% | . | i
CC(C)C1CC(c2csc(N)n2)CCO1 (stereo not given) | 0.3% | -0.02 | i
C=C(C)C1Cc2c(C)nn(-c3cccc4ccccc34)c2C1 (stereo not given) | -9.4% | . | i
O=c1[nH]c(CN2CCN(c3ccc(F)cc3)CC2)nc2ccccc12 | 3.6% | . | i
CC(C)(C)NC(=O)c1cc(NC(=O)c2ccco2)cc(NC(=O)c2ccco2)c1 | 5.1% | -0.72 | i
O=C(CSc1nnc2ccccn12)N1CCOCC1 | 0.1% | 0.25 | i
COc1ccc(S(=O)(=O)N2CCn3c2nc2ccccc23)cc1 | 0.8% | 0.19 | i
N#C/C(=C(/O)COC(=O)c1ccc2c(c1)OCCO2)c1nc2ccccc2[nH]1 | -7.6% | 0.72 | i
O=c1nc(N2CCOCC2)nc2n1CCO2 | 5.1% | 1.2 | i
CC(=O)c1ccc(N(C(=O)Cn2nnc3ccccc32)C(C(=O)NC2CCCCC2)c2cn(C)nc2C)cc1 (stereo not given) | 1.7% | . | i
CC(C)(C)NS(=O)(=O)c1ccc2c(c1)oc(=O)c1cc(S(=O)(=O)NC(C)(C)C)ccc12 | 0.6% | . | i
Cc1ccc(CN(Cc2cc3cc(C)ccc3[nH]c2=O)C(=O)N2CCOCC2)cc1 | 2.9% | 0.07 | i
CCCCNS(=O)(=O)C1CCS(=O)(=O)C1 (stereo not given) | 1.6% | . | i
Cn1nnnc1SCC(=O)Nc1ccccc1C(=O)NC1CC1 | -0.5% | . | i
Cc1ccc(CNc2ccc(N3CCOCC3)c(C(=O)O)c2)s1 | 2.2% | 1.1 | i
O=C(Nc1ccccc1Oc1ccccc1)c1cnccn1 | -11% | -1.1 | i

Other structures follow.
SMILES | Hsc70 | WNV protease inh | MT1-MMP promoter
COc1cc(C(c2nnnn2C2CCCC2)N2CCN(C)CC2)cc(OC)c1OC (stereo not given) | -0.7% | 1.3 | i
CCC(CC)c1nnc(NS(=O)(=O)Cc2ccccc2)s1 | 2.9% | 1.4 | i
O=C(Nc1nnc(Cc2ccccc2)s1)c1ccco1 | 3.4% | . | i
O=c1cc(CSc2ccc(S(=O)(=O)N3CCCCC3)cn2)nc2sccn12 | 9.5% | -0.28 | i
COC1(OC)N=C(N)C2(C#N)C(c3ccc(F)cc3)C12C#N (stereo not given) | -6.2% | 2.3 | i
COc1ccc(Cc2noc(-c3ccc(C)cc3)n2)cc1 | 7.5% | 0.35 | i
O=C(COC(=O)CCc1c[nH]c(=O)[nH]1)Nc1ccccc1Cl | 14% | -0.31 | i
CC(=O)c1cc2c(cc1NC(=O)c1cc(C)nn1-c1ccccc1)OCO2 | 0.1% | -0.93 | i
CCOC(=O)COc1ccc(S(=O)(=O)NCC2CCCO2)cc1 (stereo not given) | -0.6% | . | i
COc1ccc(C2CC(=O)C(C=NCCN3CCN(C(C)=O)CC3)=C(O)C2)cc1OC (stereo not given) | 3.2% | -0.19 | i
CCCCn1c(C)nc2c(=O)n(C)c(=O)[nH]c21 | -8.1% | -0.2 | i
Clc1ccccc1CSc1nnc(-c2cccnc2)n1Cc1ccco1 | -1.3% | -0.98 | i
O=C(CCSc1nnc2scc(-c3ccccc3)n12)Nc1nc(-c2ccccc2)ns1 | 2.0% | 1.5 | i
CCOC(=O)C1=C(C)NC(=O)NC1c1ccc(NC(C)=O)cc1 (stereo not given) | -3.5% | -0.06 | i
O=C(Nc1ccon1)C1CCN(S(=O)(=O)c2cccs2)CC1 | -1.9% | 0.42 | i
Cc1oc2c(CN3CCCC3)c(O)ccc2c(=O)c1Oc1ccccc1Br | 2.1% | 1.7 | i
CCCn1c(C)cc(-c2csc(N)n2)c1C | 6.4% | . | i
CCC(=O)Nc1nnc(Sc2ccc(N(C)C)cc2)s1 | -5.7% | -0.73 | i
CCOc1cc(CNc2ccc3c(c2)CCC3)ccc1O | 2.6% | . | i
COc1ccc(OC)c(C2CC(=O)c3c([nH]c(C(=O)OCC4CCCO4)c3C)C2)c1 (stereo not given) | 0.1% | -2 | i
CCCN1CN(Cc2ccccc2)CC2=C1CC(C)(C)CC2=O | -1.2% | -0.08 | i
CC(C)C(=O)NC(C)C(c1cccs1)N1CCN(C)CC1 (stereo not given) | -5.6% | -0.48 | i
O=S(=O)(c1ccccc1C(F)(F)F)N1CCC(n2cnc3ccccc32)CC1 | 2.6% | . | i
N#CC(C(=O)C1CCCCC1)c1nc2ccccc2[nH]1 (stereo not given) | 3.3% | 2.4 | i
Cc1nc2cc(NC(=O)COc3ccccc3C#N)ccc2n1-c1ccccc1 | 0.7% | . | i
CC1(C)NC(=O)N(CCCCOc2cccc(C(F)(F)F)c2)C1=O | -2.0% | -1.1 | i
Cc1cc(S(=O)(=O)Nc2c(C(=O)O)[nH]c3ccccc23)ccc1F | 1.2% | 0.23 | i
O=C(NCc1ccc(F)cc1)c1cnc2sccn2c1=O | 2.6% | 0.62 | i
Cc1cc(C2C(=O)C(C(=O)c3ccc(Cl)cc3)C(=O)CC2(C)C)on1 (stereo not given) | -0.7% | -0.35 | i

Grouped by structure: those above with a tert-butyl group.
SMILES | Hsc70 | WNV protease inh | MT1-MMP promoter
CC(C)(C)NC(=O)c1cnn(-c2ccccc2)c1NC(=O)c1ccccc1 | 1.6% | . | i
CC(C)(C)NC(=O)c1cc(NC(=O)c2ccco2)cc(NC(=O)c2ccco2)c1 | 5.1% | -0.72 | i
CC(C)(C)NS(=O)(=O)c1ccc2c(c1)oc(=O)c1cc(S(=O)(=O)NC(C)(C)C)ccc12 | 0.6% | . | i

Compound activity deposited in PubChem by several laboratories.

Some of the compounds tested; the hit share may differ from the screen's.
